TRPML1 inh: qHTS for Inhibitors of the Human Mucolipin Transient Receptor Potential 1 (TRPML1) | AID 624415, 2012 | activity change, negative = inhibition, % (no concentration beside the values) | hit rate 0.02% among 390,000 | Mucolipin-1 (Homo sapiens), Q9GZU1 | TRPML1-inducible cells, Ca2+ dye fluorescence, FDSS; stronger effect = lower value; inhibition of EC80 agonist-evoked calcium signal; in the data active means activity change below about -50%; inconclusive means about -30% to -50%; inactive means above about -30%;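 note: stimulus is agonist 54-4 at its EC80 concentration; % is set by controls: 0 for no effect and ±100 for the full control effect; compound concentration not given in the record; the text of the record puts the active cut at -80%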
Target sequence (Q9GZU1 whole entry, looked up): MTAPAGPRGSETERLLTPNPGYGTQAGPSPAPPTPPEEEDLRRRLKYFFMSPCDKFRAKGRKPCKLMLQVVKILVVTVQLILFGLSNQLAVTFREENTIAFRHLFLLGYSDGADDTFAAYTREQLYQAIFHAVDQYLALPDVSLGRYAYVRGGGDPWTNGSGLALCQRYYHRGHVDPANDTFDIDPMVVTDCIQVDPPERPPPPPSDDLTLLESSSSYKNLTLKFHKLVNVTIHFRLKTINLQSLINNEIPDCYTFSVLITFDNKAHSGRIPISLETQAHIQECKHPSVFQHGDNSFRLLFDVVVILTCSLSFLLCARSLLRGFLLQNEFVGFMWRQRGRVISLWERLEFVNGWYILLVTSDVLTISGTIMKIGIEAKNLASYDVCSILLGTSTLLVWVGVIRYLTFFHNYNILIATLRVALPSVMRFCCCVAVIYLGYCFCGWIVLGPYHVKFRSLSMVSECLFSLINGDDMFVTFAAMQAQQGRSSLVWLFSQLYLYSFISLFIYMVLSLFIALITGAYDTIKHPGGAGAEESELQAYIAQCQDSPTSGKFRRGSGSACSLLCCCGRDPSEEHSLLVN
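Calcium fluorescence in TRPML1-DL cells induced overnight with Tet: a 110 s read after compound pin addition, then a 110 s antagonist read after challenge with 54-4 at 4 uM final (EC80).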
TRPML1 ag: qHTS for Agonists of the Human Mucolipin Transient Receptor Potential 1 (TRPML1); Mucolipin-1 (Homo sapiens), Q9GZU1; TRPML1-expressing cells, Ca2+ dye fluorescence, FDSS; host cell line not named in the record; reference of the full effect not given here; activation, % (test concentration not listed); hit rate 0.12% among 410,000; AID 624414, 2012; in the data active = activation above about 50%; inconclusive = about 30% to 50%; inactive = below about 30%; note: 0% is about no effect; the text of the record puts the active cut at 80%
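In this qHTS format, compounds were pin-transferred onto Ca8-dye-loaded TRPML1-DL cells induced with Tet overnight, and intracellular Ca2+ fluorescence was recorded kinetically for 110 s after a 10 s baseline. A subsequent 4uM final 54-4 (EC80) addition followed by a second 110 s read served as the antagonist phase.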
ClpP mod: qHTS Assay for Activators of ClpP | purified B. subtilis ClpP, FRET peptide cleavage, 20 min | hit rate 1.9% among 340,000 | AID 651965, 2013 | Potency, µM (series often up to 57.5 µM), for inactives: at the highest dose activity change, negative = active; active = well fitted falling curve with a large enough effect; inconclusive = small, poorly fitted or top-dose-only effect; inactive = no such curve, though single readings can be large or run the other way; note: potency is the fitted concentration of half-maximal effect; the source files actives as falling curves though it sought activators and does not explain the sign; nearly all actives have a fitted effect of over 65% in size; many hits overshoot -100%
Target sequence (P80244 whole entry, looked up): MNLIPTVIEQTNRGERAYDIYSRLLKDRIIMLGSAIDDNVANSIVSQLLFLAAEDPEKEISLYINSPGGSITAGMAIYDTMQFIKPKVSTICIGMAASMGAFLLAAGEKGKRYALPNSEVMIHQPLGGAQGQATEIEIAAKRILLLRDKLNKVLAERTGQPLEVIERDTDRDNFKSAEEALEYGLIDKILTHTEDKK
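Purified B. subtilis ClpP, 10 microg/mL final in Tris/HCl pH8 with KCl, BSA, glycerol and Tween-20, cleaved an Abz/nitrotyrosine-quenched decapeptide. Fluorescence (ex 320, em 430) was read at 0 and 20 min at room temperature. Delta was normalized to 5.8 microM ADEP and DMSO/no-enzyme controls.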
gsp ag: qHTS for Agonist of gsp, the Etiologic Mutation Responsible for Fibrous Dysplasia/McCune-Albright Syndrome: qHTS. gsp mutant cells, cAMP HTRF, 30 min; control for the full effect not named in the record. Potency, µM (titrated, usually from 76.9 µM), for inactives: top-dose activation (cAMP increase), usual class: activators. hit rate 0.13% among 340,000. AID 624287, 2012; active = well fitted activation curve with a large enough effect; inconclusive = small, poorly fitted or top-dose-only effect, or another doubt; inactive = no such curve, though single readings can be large or run the other way; cell line not stated here;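 note: phosphodiesterase inhibitor Ro 20-1724 added with compounds to block cAMP breakdown; potency is the fitted concentration of half-maximal effect; nearly all actives have a fitted effect of over 60% in size; about a fifth of the inactives were tested at one dose only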
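Cells stably selected in G418 were plated at 2000/well, grown 16-24 hr, then given compounds in DMSO with the PDE inhibitor […] (300 uM solution added) for 30 min at 37C; cAMP was read by HTRF.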
Menin-MLL FL inh: qHTS Assay for Inhibitors Targeting the Menin-MLL Interaction in MLL Related Leukemias: Competition With Fluorescein Labeled MLL-derived Peptide | Fluorescence polarization, fluorescein-MLL peptide displacement from menin | FP activity change, % at 61.4 µM | 290,000 tested, under 10 active; inconclusive = falling polarisation curve, or a change in total fluorescence; inactive = total fluorescence flat and polarisation flat or rising; no compound was filed as active; the % refers to the polarisation; negative = inhibition;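 note: % of control where 0% means no effect; inhibitors lower the polarisation; unlabelled MLL peptide was the positive control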
gsp antag: qHTS for Antagonists of gsp, the Etiologic Mutation Responsible for Fibrous Dysplasia/McCune-Albright Syndrome: qHTS; gsp-mutant cells, cAMP HTRF, 30 min; control for the full effect not named in the record; hit rate 0.4% among 340,000; Potency, µM (series often up to 76.9 µM), without a hit: at the highest dose activity change, negative = inhibition, most hits filed as inhibitors; active = falling curve of any shape with a large fitted effect; inconclusive = falling curve, mostly with a smaller effect; inactive = flat or rising curve; cell line not stated here;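 note: intracellular cAMP measured with PDE inhibitor Ro 20-1724 present during compound exposure; potency is the fitted concentration of half-maximal effect; % is set by controls: 0 for no effect and ±100 for the full control effect; nearly all actives have a fitted effect of over 65% in size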
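Cells in G418 medium, seeded 16-24 h, 37C; buffer exchange to DPBS + 1 mM CaCl2, 0.5 mM MgCl2, 0.05% BSA; cpds in DMSO + […] (300 uM stock), 30 min 37C; HTRF cAMP detection.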
Active calls of the source: *; ? = inconclusive; / = not tested or not shown; & = joins results of further samples; [ ] = remark or other dose. Hits appear at their usual frequency; 2.1% or so of the library scored in one or more.

Below each SMILES: gsp antag, TRPML1 inh, gsp ag, Menin-MLL FL inh, ClpP mod, TRPML1 ag
- CC(C1CC1)N(Cc1ccccc1)C(=S)Nc1ccccc1 (configuration not stated)
    7%, -7, 4%, -4.2, /, -0.7
- Cc1nnc(NC(=O)C2CCN(C(=O)c3ccco3)CC2)s1
    4%, 8, 10%, 2.0, /, 1.0
- CCN(CC)CCN=CC1=C(O)CNC1=O
    -1%, -22, 3%, -1.4, -1.2%, 0.5
- COc1cccc(C2=NCCc3cc4c(cc32)OCO4)c1OC
    -1%, -8, -2%, 1.2, -2.8%, 0.4
- COC(=O)c1ccc(N/C=C/C(=O)c2ccccc2)cc1
    7%, -13, 0%[15.4 µM], -0.4, -0.1%, 0.3
- CCN(CC)C(=O)[C@H]1C[C@H](CC(=O)NCCc2ccccn2)C(=O)N2CCc3c([nH]c4cc(CCC(=O)N(C)C)ccc34)[C@]12C
    0%, 3, /, /, -3.4%, 2.9
- CCNC(=O)/C(=C\c1ccccc1)NC(=O)/C=C/c1ccccc1
    2%, -6, -2%, 0.5, ?, -0.1
- COC(=O)c1sc(S(=O)(=O)NCc2ccccc2)c(C(=O)OC)c1C
    -8%, -3, 28%, -1.2, -1.3%, 3.0
- CNC(=O)c1cccc2cccc(Sc3ccccc3C(=O)O)c12
    -1%, -2, -2%[15.4 µM], -0.3, /, 0.8
- COC(=O)c1ccc(CSc2nnc3c(Cl)cc(Cl)cn23)o1
    -7%, -3, -1%, 1.0, -1.2%, 0.9
- Cc1ccc2oc(C(=O)NCC(c3ccco3)N(C)C)c(C)c2c1 (configuration not stated)
    6%, -12, 24%, 3.6, 0.1%, 1.0
- COc1cccc(NC(=O)Nc2cc(-c3cn4cccnc4n3)ccc2C)c1
    /, -6, /, /, ?, 2.6
- Cc1ccnc2c1ccc1cccnc12
    -2%, -3, -25%[15.4 µM], /, /, -0.4
- Cc1ccc(-c2nn(CC(=O)N(C)C)c(=O)c3ccccc23)cc1S(=O)(=O)N(C)C
    -13%, 0, 0%, 0.8, -0.8%, 0.4
- O=C(C1CCCCC1)N1CCC(O)(c2ccc(Cl)cc2)CC1
    -12%, 8, 18%[15.4 µM], 0.0, -6.9%, 0.0
- CCCCC(CC)CNC(=O)CN1C(=O)CSc2ccc(S(=O)(=O)N3CCOCC3)cc21 (configuration not stated)
    /, -12, /, /, -0.1%, -0.3
- COc1cccc(NS(=O)(=O)c2ccc3c(c2)n(C)c(=O)n3C)c1
    /, 13, /, /, 1.1%, 2.2
- CN(C)c1ccc(C(=O)N2CCN(C(=O)C3CCCO3)CC2)cc1 (configuration not stated)
    9%, -9, 10%, /, -1.3%, 0.2
- Cn1/c(=N/N=C/c2ccccn2)sc2ccccc21
    -17%, -9, -19%[15.4 µM], 4.5, /, -0.6
- CCCC(=O)Nc1ccc(C(=O)Nc2nc(CC(=O)OCC)cs2)cc1
    -30%, 9, -12%, 1.1, 1.7%, -0.4
- COc1ccccc1NC(=O)Cn1c(=O)n(Cc2ccco2)c(=O)c2oc3ccccc3c21
    /, -13, /, /, 32µM*, 0.4
- CC1(c2ccccc2)NC(=O)N(CC(=O)N2CCN(S(=O)(=O)c3cccc(C(F)(F)F)c3)CC2)C1=O (configuration not stated)
    -3%, 14, -6%, /, -1.9%, -0.2
- CC(C)C[C@@H](CN1CCCC1CN1C(=S)NC[C@@H]1Cc1ccc(O)cc1)N1C[C@H](Cc2ccccc2)N(CC2CCCCCC2)C1=S (some centres not stated)
    -4%, 13, /, /, -3.0%, -0.6
- COc1ccccc1CNC(=O)c1ccccc1NS(C)(=O)=O
    1%, 4, 27%, 4.4, 28µM*, 2.7
- O=C1NCCNC1(c1c[nH]c2ccccc12)C(F)(F)F (configuration not stated)
    -4%, 55, 0%, 0.2, -0.5%, -0.2
- O=C(O)CCCCn1c(SCC(=O)Nc2ccccc2C(F)(F)F)nc2ccsc2c1=O
    -30%, 8&-16, 15%[15.4 µM], 3.2, -0.5%&-0.7%, -0.8&1.6
- C=CCn1c(O)c(N=NC(=O)CNC(=O)c2ccco2)c2ccccc21
    1%, 21, -45%[inhibitor], 4.4, -1.6%, 0.9
- O=C(NC1CCCCCCC1)C1CCC(CNc2c(N3CCCC3)c(=O)c2=O)CC1 (configuration not stated)
    7%, 13, -16%, -0.2, 2.0%, -0.6
- O=C(Nc1nccs1)C(c1ccccc1)N1CCCC1 (configuration not stated)
    3%, 31, -3%[15.4 µM], -1.1, /, 0.6
- Cc1c(NC(=O)C(C)OC(=O)c2cccnc2Cl)c(=O)n(-c2ccccc2)n1C (configuration not stated)
    8%, -5, 18%, /, -0.1%, 0.0
- O=C(NCCCN1CCCCC1)C1CCC(=O)N1CCc1ccccc1 (configuration not stated)
    -12%, 10, 5%, 2.9, -5.4%, -0.2
- CSc1ncccc1C(=O)Nc1ccc2nc(C)sc2c1
    -8%, 17, 9%, 2.8, -0.8%, 1.1
- C(=Nc1ccc(N2CCOCC2)cc1)c1c[nH]c2ccccc12
    -24%, -3, 3%[15.4 µM], 3.5, -0.1%, -0.2
- COc1cccc(OCc2cc(C(=O)N3CCN(C4CCCC4)CC3)no2)c1
    6%, -10, 0%[15.4 µM], /, -1.8%, -0.7
- CN(C)S(=O)(=O)c1cccc(NC(=O)CSc2nnnn2-c2ccccc2)c1
    ?, 6, -28%, 3.3, -0.4%, -0.4
- CCOc1ccc(C(=O)N(CN2CCCC2=O)c2ccccc2)cc1
    -17%, 13, -1%, 0.3, -1.3%, 0.6
- O=C(/C(=C/c1ccccc1Cl)c1ccccc1)N1CCOCC1
    1%, 8, 21%, 4.8, -2.6%, -0.3
- COc1cc(C=NNC(=O)c2ccccc2NS(=O)(=O)c2cccs2)cc(OC)c1O
    ?, 16, 4%, /, -9.5%, 1.1
- O=c1ccc(Cl)n[nH]1
    8%, 15, 4%, 0.6, /, 1.6
- CCCCNC(=O)COc1ccccc1[N+](=O)[O-]
    11%, -9, -53%[inhibitor], -3.5, -4.8%, -0.4
- O=[N+]([O-])c1ccc(Cn2cc(-c3cccc(C(F)(F)F)c3)nn2)cc1
    4%, 45, 3%, -5.8, -2.9%&0.3%, 2.5&-0.2
- C=C(C)Cn1c(N)cc(=O)nc1SCC(=O)Nc1cccc(C(F)(F)F)c1
    0%, 7, -13%, 0.6, 2.5%, 1.3
- COc1cc(C2C(C#N)=C(N)N(Nc3ccccc3)C3=C2C(=O)CC(C)(C)C3)ccc1OCc1ccccc1 (configuration not stated)
    -6%, -18, -28%, 0.1, -24%, 1.4
- Cc1nc(-c2ccccc2)sc1-c1ccc(SCC(=O)NCc2ccc(F)cc2)nn1
    /, 16, /, /, -10.0%, 0.7
- Cc1cc(N2CCN(c3ccccc3)CC2)n2ncnc2n1
    -4%, 18, -3%[15.4 µM], 3.6, -6.8%, 0.6
- Clc1cc(Cl)c(OCCCCn2cncn2)c(Cl)c1
    -7%, /, -24%, -0.1, -2.8%, /
- CCN(CC)CCCNC(=O)c1cn(C)c(=O)c2c1c1ccccc1n2C
    13%, 9, -13%, -11, 3.8%, -0.4
- CNC(=S)NNC(=O)CSCc1c(Cl)cccc1Cl
    -10%, 15, -3%[15.4 µM], -0.5, /, -0.3
- CC(C)(C)OC(=O)N[C@H](Cc1ccccc1)C(=O)N1CCC[C@@H]1C(=O)O
    5%, 9, 8%, 8.2, 0.8%, 0.5
- Cc1ccc(S(=O)(=O)N2CCC(=O)CC2)cc1
    5%, -2, -39%[inhibitor], 4.6, -1.2%, -0.4
- COc1ccccc1NC(=O)N1CCC(NC(=O)C(Cc2ccccc2F)NC(C)=O)CC1 (configuration not stated)
    3%, -20, -19%, /, -1.4%, 0.9
- Cc1cccc(OCCCn2c(CCNC(=O)C3CCCCC3)nc3ccccc32)c1
    /, 38, /, /, 2.4%, 3.2
- CCOC(=O)c1c(C)nc2c(c1-c1ccc(Cl)cc1)C(=O)CC(C)(C)C2
    -36%, 28, 22%[15.4 µM], 1.5, -8.4%, -0.2
- COc1cccc(-c2csc(N3CCN(C(=S)Nc4ccc(Cl)cc4)CC3)n2)c1
    -7%, 4, -9%, 9.3, -3.2%, 1.2
- COc1cc(OC)c(OC)cc1/C=N/NC(=O)CCc1c(C)n[nH]c1C
    -2%, -1, -12%, -3.7, 4.2%, -0.9
- CCCCOc1ccc(-c2c(C(=O)Nc3ccccc3)c(C)[nH]c(=S)c2C#N)cc1
    15%, -4, 2.5µM*, -0.8, /, -0.2
- Nc1cc(C(=O)c2ccccc2)ccc1N1CCOCC1
    -6%, 5, -17%, 1.1, -0.7%, -1.2
- CCCCCN(C(=O)CCC(=O)OCc1cccc(Br)c1)c1c(N)n(CCCC)c(=O)[nH]c1=O
    -1%, 3, -33%, /, 2.0%, 0.4
- CS(=O)(=O)CCC(C(=O)OCc1ccc(Cl)cc1)N1C(=O)c2ccccc2C1=O (configuration not stated)
    -7%, 32, 0%, -1.2, -3.5%, 0.5
- Cc1ccccc1OCCCN1C(=O)C(=O)c2cccc(C)c21
    8%, -6, 1%, -3.4, 0.9%, 3.0

More structures:
Below each SMILES: gsp antag, TRPML1 inh, gsp ag, Menin-MLL FL inh, ClpP mod, TRPML1 ag
- CCC(=O)N1CCc2cc(S(=O)(=O)NCCC(=O)Nc3ccc(C)cc3C)ccc21
    /, -13, /, /, -1.3%, -0.2
- CC1(C)CC(=O)C2=C(C1)OC(N)=C(C#N)C21CCC2(CC1)OCCO2
    -3%, 6, 6%, 2.3, -9.7%, -0.3
- CC(=O)OC1CSc2nc3ccccc3n2C1 (configuration not stated)
    4%, -7, -4%, 0.6, -1.8%, 0.0
- Nc1nc(N)nc(-c2ccc(Oc3ccccc3)cc2)n1
    1%, 20, -1%, 3.0, -0.2%, 0.4
- CC(C)c1ccc(OCc2ccc(C(=O)N3CCCC3)o2)cc1
    ?, 11, -14%, -2.1, /, 3.2
- CN1CCc2c(sc(N)c2C(N)=O)C1
    10%, 8, -24%, ?, 20µM*, 1.6
- CCOC(=O)NC(=S)Nc1ccc(C(C)(C)C)cc1Br
    -19%, 0, -3%[15.4 µM], -0.3, -0.5%, -0.5
- Cc1ccc(N2C(=O)C(O)(C(F)(F)F)C3=C2CC(C)(C)CC3=O)cc1C (configuration not stated)
    -9%, 37, 13%, 1.7, -2.8%, 0.8
- CCN(CC)S(=O)(=O)c1csc(C(=O)Nc2ccccn2)c1
    5%, 3, 24%, 2.7, -3.0%, -0.6

Bioassay records from PubChem.
